Screening data (PubChem)
CDC25B CDK2 inh: primary biochemical HTRF screen for blockers of M-phase inducer phosphatase 2 binding to CDK2/cyclin A. z-score (test concentration not listed). 94,000 tested, 0.72% active. P30305+P24941. HTRF CDC25B-CDK2/CyclinA binding, anti-His/anti-Flag; stronger effect = higher value. AID 1259370, 2018;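 also: score is relative to mean and SD of negative controls; strong numbers were not always called active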
TAR Tat displ: TAR RNA-Tat peptide displacers, HIV-1, primary screen, biochemical, FRET, FAM/TAMRA-labeled Tat; 100,000 tested, 0.6% active; z-score (no concentration beside the values); AID 1259389, 2018; HIV-1 TAR RNA, Tat peptide displacement FRET; stronger effect = higher value;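 also: score is relative to mean and SD of negative controls; some compounds called inactive have numbers as strong as hits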
Starred values were filed as active, the others as inactive; . = no result given.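 The calls were made as follows: active = z-score from 3 up in half or more of its runs; inactive = the rest.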

SMILES	CDC25B CDK2 inh	TAR Tat displ
COc1ccc(C2=NN(C(=O)c3cccs3)C(c3ccc(OC)cc3)C2)cc1 (configuration not stated)	-0.69	.
COc1ccc(Oc2ccc(C(F)(F)F)cc2NC(=O)c2ccc(OC)cc2)cc1	0.27	.
COC(=O)c1c(C)[nH]c(C)c1-c1ccon1	-2.4	.
O=S(=O)(NCc1ccccn1)c1ccc(-c2ccc(S(=O)(=O)NCc3ccccn3)cc2)cc1	.	1.2
Oc1c(Cl)cc(Cl)cc1Sc1cc(Cl)cc(Cl)c1O	.	1.1
CCCCCOC(=O)C1=C(C)NC2=C(C(=O)CCC2)C1c1ccc(OC)c(OC)c1 (configuration not stated)	-0.39	2.1
COc1ccccc1Nc1nc2nonc2nc1N1CCC(C)CC1	-0.67	1.3
CCCS(=O)(=O)c1nc(S(=O)(=O)c2ccc(C)cc2)c(NC)s1	0.48	-0.14
O=C(Nc1ccc(F)cc1F)Nc1ccccc1C(=O)NCCN1CCNC1=O	-1.9	.
CCOCCOC(=O)C1=C(C)NC2=C(C(=O)CCC2)C1c1coc2ccc(C)cc2c1=O (configuration not stated)	-1.5	0
CC(C)Oc1ccc(C2N3CC4(C)CN2CC(C)(C3)C4)cc1 (configuration not stated)	-0.47	2.3
C=CCn1c(=O)sc2cc(NC(=O)c3ccco3)ccc21	.	0.89
C/C(=N\NC(=O)c1cc(C(C)(C)C)[nH]n1)c1ccc2ccccc2c1	-1.4	.
CCCn1c(NCc2ccccn2)nc2ccccc21	-1.6	-0.92
COc1ccccc1NC(=O)N1CC2CCCN2c2ccccc21 (configuration not stated)	.	0.17
N#Cc1ccc(-c2cc(C(=O)O)c3c(ccc4ccccc43)n2)cc1	12*	.
CC1CCCC(N(C)S(=O)(=O)c2cc3c(cc2Cl)NC(=O)CO3)C1C (configuration not stated)	.	-2.1
O=C(NC1CC1)C1Cc2ccccc2N1C(=O)c1ccccc1 (configuration not stated)	.	1.1
CCOC(=O)N1CCN(c2ccccc2OC)CC1	-1.8	.
O=C1CC(c2ccco2)CC2=C1C(c1ccco1)Nc1ccccc1N2 (configuration not stated)	-0.52	0.63
COc1ccc(OCc2nn3c(-c4cccc(Cl)c4)nnc3s2)cc1	-0.9	1.3
COc1ccccc1-c1c(C(F)(F)F)oc2cc(OCC(=O)OC(C)C)ccc2c1=O	-1.1	0.97
CC[C@H]1CN2CCc3cc(OC)c(OC)cc3[C@@H]2C[C@@H]1C[C@H]1NCCc2cc(OC)c(OC)cc21	-2.3	-7.7
Nc1ccc(Cl)cc1-c1nc2ccccc2[nH]1	-0.25	.
COc1ccc(/C=N/NS(=O)(=O)c2ccc(Cl)cc2)cc1OC	1.4	.
O=C(NCC(c1ccco1)S(=O)(=O)c1cccs1)c1c(F)cccc1F (configuration not stated)	.	1.3
CCOC(=O)c1cnc(SC)nc1N	.	1.9
N#Cc1nc(COc2ccc(F)cc2)oc1NCCCn1ccnc1	0.27	-0.65
Cc1cccc2cc3c(nc12)N(C(=O)C(C)(C)C)CC3	-1.5	-0.84
O=C(NC(=S)Nc1ccc2c(c1)C(=O)c1ccccc1C2=O)c1cccs1	-3.1	.
O=C(NCC1CCCO1)c1ccc(N2CCSc3ncccc32)s1 (configuration not stated)	.	1.5
Cn1c(=O)c(=O)n(C)c2cc(S(=O)(=O)Nc3ccc(Cl)c(C(F)(F)F)c3)ccc21	-1.9	.
CCc1cc2c(cc3c(=O)n(CC(=O)NC4CCCCC4)nc(CC)n32)s1	-2.4	-1
COc1cc(CNc2nc3c(C)cc(C)cc3s2)ccc1O	1.1	-0.83
CC(C)OCCCNC(=O)C(=O)Nc1ccc2nc3n(c(=O)c2c1)CCCCC3	-1.8	.
CCCN(CCC)c1ncnc2nc[nH]c12	0.02	6.1
O=C(CCC1=NS(=O)(=O)c2ccccc2N1)N1CCN(c2ccccn2)CC1	.	0.58
O=C(CSc1nnc(N2CCOCC2)c2ccccc12)Nc1ccc2c(c1)CCC2	-1.9	-1.3
CCOc1cc(C2C(C(=O)OCc3ccccc3)=C(C)N=C3SCCC(=O)N32)ccc1OC(C)=O (configuration not stated)	-2.5	-1.1
CSc1cccc(NC(=O)N2CCn3cccc3C2C(C)C)c1 (configuration not stated)	.	0.38
Cc1ccc(CNS(=O)(=O)c2ccc3c(c2)NC(=O)C(C)CS3)cc1 (configuration not stated)	.	1.2
CCc1cc2c(cc3c(=O)n(CC(=O)NC4CCC(C)CC4)nc(CC)n32)s1 (configuration not stated)	-2.6	-0.85
CC1=C(C(=O)OC(C)C)C(c2cccc(O)c2)n2c(nc3ccccc32)N1 (configuration not stated)	-1.5	2.1
Cc1noc(C)c1S(=O)(=O)N1CCN(c2ccccc2F)CC1	-3.3	-0.23
O=S(=O)(NCc1csc(-c2cccs2)n1)c1ccc(N2CCOCC2)nc1	-1.5	.
CN(Cc1ccccc1)c1ncnc2c1nnn2C	.	2.1
O=C(NC1CCCCCCCCCCC1)c1ccncc1	-0.35	2.4
CCOC(=O)c1c(CN2CCOCC2)nc2c3ccccc3ccn12	-0.55	0.47
COc1ccc(S(=O)(=O)N2CCC(c3ccncc3)CC2)cc1OC	.	1.1
CN(CC(=O)NCc1ccco1)S(=O)(=O)c1ccc(C(=O)N2CCOCC2)s1	.	3.4
Cc1ccc(C(=O)C2C(c3ccc(F)cc3)NC(=O)NC2(O)C(F)(F)F)cc1 (configuration not stated)	-0.72	.
Cc1ccccc1-n1cc(-c2ccccc2)c2c(N3CCCC3)ncnc21	-1.2	0.4
O=c1ccc(N2CCN(S(=O)(=O)c3cccc4nsnc34)CC2)nn1-c1ccc(Cl)cc1	.	0.65
CC1CCCCN1S(=O)(=O)c1cc(Br)cc2c1N(C(=O)C1CC1)CC2 (configuration not stated)	0.6	.
Cn1c(=O)n(CC(=O)N2CCCC2)c(=O)c2cc(S(=O)(=O)Nc3ccccn3)ccc21	.	1.6
COc1ccc(CN2CSC3=C(C#N)C(c4ccc(OC)cc4)CC(=O)N3C2)cc1 (configuration not stated)	6.3*	2.3
CC(C)(C)C(=O)Nc1nnc(-c2ccc(Br)cc2)s1	-1.4	0.6
CCOC(=O)c1c(C)[nH]c(C)c1S(=O)(=O)N1CCCC(C(=O)NC(C)C)C1 (configuration not stated)	.	1.8
CCCCN1CC(c2nc3ccccc3n2CCCOc2ccccc2OC)CC1=O (configuration not stated)	-0.62	1.6
O=C(NCc1ccccn1)c1ccc(CSc2nc3ccncc3n2Cc2ccccc2)cc1	-2.2	1.3

(listing goes on)
SMILES	CDC25B CDK2 inh	TAR Tat displ
CCOC(=O)CSc1nc2sc3c(c2c(=O)n1-c1ccc(OC)cc1)CC(C)(C)OC3	-0.39	1.4
C=CCSc1ncc(C(=O)OCC)c(N)n1	.	1.1
CCCCNC(=O)Cn1nnc2sc3c(c2c1=O)CCC(C)C3 (configuration not stated)	-0.27	0.8
COc1ccc(CN2CCN(Cc3cccc(OC)c3OC)CC2)cc1Br	0.04	0.38
COc1ccc2c(C)c(C)c(=O)oc2c1C	-1.3	.
O=S(=O)(c1ccc(-c2cc(C(F)(F)F)on2)s1)N1CCc2ccccc21	.	1.1
Cc1cc(C)cc(-n2ccnc(SCC(=O)c3ccc(Cl)cc3)c2=O)c1	.	-0.34
CC(C)(C)c1ccc(-c2nc(SCC(=O)Nc3ccccc3F)n3[nH]c(=O)cc3n2)cc1	.	-0.25
CCOC(=O)c1cc(C#N)c(N2CCNCC2)nc1C(F)(F)F	-0.74	.
Cc1ccc(-c2ccc(/C=N/Nc3ccc(Cl)c(C(=O)O)c3)o2)c([N+](=O)[O-])c1	-2.5	.
O=C(C1CCCN(c2ncnc3c2nc2n3CCCCC2)C1)N1CCN(C2CCCCC2)CC1 (configuration not stated)	.	1.4
CCn1c(=O)cc(N2CCN(c3ccccc3)CC2)[nH]c1=O	.	1.5

Full records as entered above. Values in the order: CDC25B CDK2 inh	TAR Tat displ
CCOC(=O)c1cc(C#N)c(N2CCNCC2)nc1C(F)(F)F in the list: -0.74	.
C=CCSc1ncc(C(=O)OCC)c(N)n1 in the list: .	1.1

Grouped by structure: the compounds so far containing an NH in an aromatic ring (7)
SMILES	CDC25B CDK2 inh	TAR Tat displ
COC(=O)c1c(C)[nH]c(C)c1-c1ccon1	-2.4	.
C/C(=N\NC(=O)c1cc(C(C)(C)C)[nH]n1)c1ccc2ccccc2c1	-1.4	.
Nc1ccc(Cl)cc1-c1nc2ccccc2[nH]1	-0.25	.
CCCN(CCC)c1ncnc2nc[nH]c12	0.02	6.1
CCOC(=O)c1c(C)[nH]c(C)c1S(=O)(=O)N1CCCC(C(=O)NC(C)C)C1 (configuration not stated)	.	1.8
CC(C)(C)c1ccc(-c2nc(SCC(=O)Nc3ccccc3F)n3[nH]c(=O)cc3n2)cc1	.	-0.25
CCn1c(=O)cc(N2CCN(c3ccccc3)CC2)[nH]c1=O	.	1.5

Going on with the list.
SMILES	CDC25B CDK2 inh	TAR Tat displ
CN(Cc1ccco1)C(=O)CN1C(=O)CCc2ccccc21	.	1.1
CCO/C=C1\SC(=S)N(CCc2ccccc2)C1=O	-2.5	.
O=C1CCCN1c1ccc(S(=O)(=O)Nc2ccc3[nH]c(=O)oc3c2)cc1	.	0.52
Cc1csc2nc(COc3ccc(C(C)(C)C)cc3)cc(=O)n12	-2.2	-0.26
CCc1ccc(-c2nc(C(N)=O)c3[nH]c(=O)n(-c4ccc5c(c4)OCO5)c3n2)cc1	.	0.57
COCCOC(=O)c1c(C)oc2cc(Br)c(OC(=O)c3ccc(OC)c(OC)c3)cc12	2.4	-1.6
Cc1cc(C)c(NC(=O)C2CC3CCCN3C23C(=O)Nc2ccccc23)c(C)c1 (configuration not stated)	.	-0.81
O=C(CSc1nnc2n(Cc3ccccc3)c(=O)c3c4c(sc3n12)CCCC4)c1ccccc1	-2.3	.
CC1(C)Oc2ccc(Br)cc2C2CC(c3cccs3)=NN21 (configuration not stated)	-0.54	.
CC(=O)N1c2ccccc2C(=O)C1N1CCc2ccccc2C1 (configuration not stated)	.	-0.69
COc1ccc(-c2noc(-c3ccc(C)c(C)c3)n2)cc1OC	-0.96	0.44
O=[N+]([O-])c1cc(C(F)(F)F)ccc1Sc1cccs1	-1.7	.
CCOCCCN=C1NS(=O)(=O)C(c2ccc(F)cc2)=C1C	.	-0.21
Cc1ccc(S(=O)(=O)C2CS(=O)(=O)c3ccccc32)cc1 (configuration not stated)	-2	.
CCn1c(C2CC(=O)N(C)C2)nc2ccccc21 (configuration not stated)	-0.87	0.16
COCCN(Cc1cccs1)S(=O)(=O)c1ccc2c(c1)CCCC(=O)N2	.	0.78
CC(C)CNC(=O)c1cccc(NC(=O)CN2C(=O)c3ccccc3C2=O)c1	-3.2	.
CC1=C(c2ccc(C(C)C)cc2)S(=O)(=O)N=C1Nc1ccc(F)cc1	-4.3	-0.7
Cc1ccccc1OCc1nc2c3cnn(-c4cccc(Br)c4)c3ncn2n1	-0.93	1.3
CCCCCCn1c(CN2CCOCC2)nc2c1c(=O)n(C)c(=O)n2C	-0.41	-1.3
Cc1nc(Oc2ccc3ccc(=O)oc3c2)c2c3c(sc2n1)CCC3	-0.7	.
COC(=O)c1c(C)[nH]c(C)c1/C=C(\C#N)S(=O)(=O)c1ccc(Cl)cc1	-1.6	.
CC1(C)Cc2c(c(N3CCOCC3)nc3sc(C#N)c(N)c23)CO1	-0.47	.
O=C(CSc1nc2ncccc2[nH]1)Nc1ccc(F)cc1F	0.95	0.85
CCC(C)(N)c1nnnn1-c1cccc(C)c1 (configuration not stated)	.	1.8
CCc1cc2c(cc3c(=O)n(CC(=O)N(C)Cc4ccccc4)nc(CC)n32)s1	0.65	-0.14
Cn1c(=O)oc2cc(S(=O)(=O)N3CCCC(C(=O)Nc4ccc(Br)cc4)C3)ccc21 (configuration not stated)	0.18	2.7
Cc1ccc(-n2c(SCc3cc(=O)n4ccccc4n3)nc3ccsc3c2=O)cc1C	-2.6	.
COc1ccc(OC)c(S(=O)(=O)Nc2cc3c(cc2OC)n(C)c(=O)n3C)c1	-1.2	-1.8
CC1Cc2cc(S(=O)(=O)Nc3cccc(F)c3)ccc2N1C(=O)C1CC1 (configuration not stated)	.	0.47
C[C@H](NC(=O)c1ccc(Cl)cc1Cl)C(=O)NCc1cccnc1	-0.8	.
CCC(=O)N1c2ccccc2CC1C(=O)NCCN1CCCC1 (configuration not stated)	.	0.42
Cc1ccnc(N2C(=O)c3ccccc3C2Nc2ccccc2Br)c1 (configuration not stated)	-2.3	2.3
O=C(Nc1nn2c(-c3cccs3)nnc2s1)c1cccc(F)c1	-1.3	3.2
CC(C)C(=O)NCC(c1ccco1)S(=O)(=O)c1ccc(F)cc1 (configuration not stated)	.	2
COc1cccc2cc(C(=O)CC3(O)C(=O)Nc4c(C)cccc43)oc12 (configuration not stated)	.	1
Cc1cc(C)c(S(=O)(=O)N2CCN(c3ccc(F)cc3)CC2)c(C)c1	-2.2	.
CN1C(=O)Cc2cc(S(=O)(=O)N3CCC(c4ccncc4)CC3)ccc21	.	1.8
O=C(Nc1nccs1)c1cc(-c2ccc(Cl)cc2)nc2ccccc12	-3.2	.

Reprinted at random: 7 records from the list.
SMILES	CDC25B CDK2 inh	TAR Tat displ
O=C(Nc1nccs1)c1cc(-c2ccc(Cl)cc2)nc2ccccc12	-3.2	.
CCC(=O)N1c2ccccc2CC1C(=O)NCCN1CCCC1 (configuration not stated)	.	0.42
CN1C(=O)Cc2cc(S(=O)(=O)N3CCC(c4ccncc4)CC3)ccc21	.	1.8
CC(C)C(=O)NCC(c1ccco1)S(=O)(=O)c1ccc(F)cc1 (configuration not stated)	.	2
CCc1cc2c(cc3c(=O)n(CC(=O)N(C)Cc4ccccc4)nc(CC)n32)s1	0.65	-0.14
Cc1cc(C)c(S(=O)(=O)N2CCN(c3ccc(F)cc3)CC2)c(C)c1	-2.2	.
Cn1c(=O)oc2cc(S(=O)(=O)N3CCCC(C(=O)Nc4ccc(Br)cc4)C3)ccc21 (configuration not stated)	0.18	2.7
